Source: PubChem BioAssay
Arbovirus anti = blocks arbovirus infection. inhibition, % at 10 µM. 0.37% of 200,000 active. arbovirus infection cell-based antiviral screen. AID 1251;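 active = inhibition from about 30%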;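 also: bluetongue infection of BSR cells; cell survival read as ATP light after 72 h; 0% = infected wells without compound and 100% = uninfected wells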
YopH PTP inh = inhibitors of Yersinia enterocolitica YopH tyrosine phosphatase; fluorescence Ex485/Em525; inhibition, %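 (about 10 µM by stock and volumes)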; 0.16% of 140,000 active; AID 898;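 active = inhibition of 50% or more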;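 also: controls were vehicle for no effect and minimum signal wells for full effect; inactives centre near -20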
Mtb growth = M. tuberculosis H37Rv growth inhibitors, H37Rv strain (AID 1626). M. tuberculosis H37Rv growth inhibition; higher % means a stronger effect. 0.95% of 220,000 active. inhibition, % at 10 µM, or IC50 in µM where a hit was titrated;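 active = confirmed in a dose series; inconclusive = inhibition above 80% but not taken into the dose series; inactive = below 80% or under 30% at every dose of the series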;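 also: bacteria incubated seven days before Alamar blue readout; 0% = bacteria only wells and 100% = bacteria with antibiotic wells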
RecA splice inh = blocks M. tuberculosis RecA intein splicing; cell-free RecA intein splicing, fluorescence; 0.75% of 290,000 active; AID 2221; inhibition, %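 (about 9 µM by stock and volumes)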; in the data active = inhibition above about 30%; inconclusive = no clear call, values can overlap the other calls;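 also: 0% = vehicle wells and 100% = reference inhibitor control wells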
Target sequence (P9WHJ3 whole entry, looked up, canonical isoform): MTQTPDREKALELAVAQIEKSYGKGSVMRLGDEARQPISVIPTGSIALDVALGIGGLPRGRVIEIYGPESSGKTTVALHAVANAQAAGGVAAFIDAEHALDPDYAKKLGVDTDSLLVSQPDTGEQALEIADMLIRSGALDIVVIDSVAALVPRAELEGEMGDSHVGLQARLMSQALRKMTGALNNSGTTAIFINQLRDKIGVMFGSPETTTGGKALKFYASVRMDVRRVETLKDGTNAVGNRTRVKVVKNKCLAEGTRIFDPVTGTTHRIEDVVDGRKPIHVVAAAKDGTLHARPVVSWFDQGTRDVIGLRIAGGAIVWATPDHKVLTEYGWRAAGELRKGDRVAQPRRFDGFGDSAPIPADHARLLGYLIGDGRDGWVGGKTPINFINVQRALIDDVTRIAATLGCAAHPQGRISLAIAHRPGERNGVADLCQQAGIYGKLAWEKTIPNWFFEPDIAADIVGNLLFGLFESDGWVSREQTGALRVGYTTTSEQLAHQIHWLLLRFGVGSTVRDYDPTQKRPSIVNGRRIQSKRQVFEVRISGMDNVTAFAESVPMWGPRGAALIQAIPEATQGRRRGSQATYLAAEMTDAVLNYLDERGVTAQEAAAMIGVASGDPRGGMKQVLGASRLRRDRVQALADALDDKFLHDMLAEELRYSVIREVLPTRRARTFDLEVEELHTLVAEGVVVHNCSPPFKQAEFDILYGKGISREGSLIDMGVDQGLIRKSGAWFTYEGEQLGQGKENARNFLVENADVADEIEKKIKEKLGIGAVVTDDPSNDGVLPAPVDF
Mtb betalactam = beta-lactam sensitization of Mtb H37Rv; AID 434955; inhibition, % at 25 µM; 0.27% of 330,000 active; M. tuberculosis H37Rv growth with meropenem, percent inhibition; hits of this screen are not shown here;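 active = about 74% or more and at least 40 points above the plate without the antibiotic, then above 30% in a dose series; inconclusive = first-round hits that could not be retested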;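 also: growth measured after seven days incubation then overnight dye step; 0% = bacteria only wells and 100% = bacteria with antibiotic; twin plates without the antibiotic show which effects depend on it; some results filed as inactive read as strong as hits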
Arbovirus anti repeat = further read-out of Arbovirus anti, marked with its call; inhibition, %; measured here: 10K subset replicate screen; many hits read low in the repeat;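 first of two repeat runs on a subset; 0% = infected and 100% = uninfected wells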
* hit, by the source's call; ? = inconclusive; nt = no result given.

Sample of the layout:
SMILES | Arbovirus anti | YopH PTP inh | Mtb growth | RecA splice inh | Mtb betalactam | others
CCOc1c2ccc(C(=O)NCc3cc(C(F)(F)F)cc(C(F)(F)F)c3)cc2nn1C | -33 | -44 | 0% | -33 | 54
CC(=O)c1sc(NC(=O)CCS(=O)(=O)c2ccccc2)nc1C | nt | nt | nt | 4.4 | ?
Nc1nc(-c2ccc(Br)s2)c(Br)s1 | 5 | -34 | 58% | 2.7 | -13

The listing, from the first entry:
SMILES | Arbovirus anti | YopH PTP inh | Mtb growth | RecA splice inh | Mtb betalactam | others
CCOc1c2ccc(C(=O)NCc3cc(C(F)(F)F)cc(C(F)(F)F)c3)cc2nn1C | -33 | -44 | 0% | -33 | 54
CC(=O)c1sc(NC(=O)CCS(=O)(=O)c2ccccc2)nc1C | nt | nt | nt | 4.4 | ?
Nc1nc(-c2ccc(Br)s2)c(Br)s1 | 5 | -34 | 58% | 2.7 | -13
CCn1c(COc2ccc3c(c2)CCCC3)nnc1SCC(=O)Nc1nccs1 | -6 | 14 | -2% | -0.3 | 3
Cc1cc2oc(C(=O)NCc3ccncc3)c(C)c2cc1C | -12 | -22 | 5% | -1.1 | 10 | Arbovirus anti repeat=-7
CCCCCCc1cc2cc(-c3nnc(-c4ccccc4OC)o3)c(=O)oc2cc1O | -3 | -15 | -3% | -48 | -8
Cc1ccc(SCC(=O)N(C)CC(=O)Nc2cccc(F)c2)c(C)c1 | nt | nt | nt | 3.2 | -10
N#Cc1ccc(OCC(=O)Nc2cc(S(=O)(=O)N3CCOCC3)ccc2N2CCOCC2)cc1 | nt | nt | 4% | 0.8 | -3
COc1ccc(N(C(=O)c2ccncc2)S(=O)(=O)c2ccccc2)cc1 | nt | nt | nt | 9.9 | 7
O=C(O)c1c(F)c(F)cc2ccccc12 | -2 | -5 | nt | -0.8 | -4
CC(=O)Cc1nsc(NC(=O)c2cccs2)n1 | -7 | -26 | -7% | -3.6 | -1
CC(=O)c1ccc(C(=O)N2CCCC(Nc3ccccc3)C2)s1 (configuration not stated) | nt | nt | nt | 2.1 | ?
Cc1cccc(Nc2nnc(SCC(=O)Nc3ncc(C(F)(F)F)cc3Cl)s2)c1C | 6 | -18 | 3% | -1.7 | nt
O=C1CCn2nc(-c3ccc(Cl)cc3)cc2N1 | 9 | -28 | 3% | 0.3 | -3
COc1ccc(/C=N/n2c(COc3ccccc3)n[nH]c2=S)cc1OC | nt | nt | nt | -0.3 | -1

Molecules shown so far containing fluorine:
SMILES | Arbovirus anti | YopH PTP inh | Mtb growth | RecA splice inh | Mtb betalactam | others
CCOc1c2ccc(C(=O)NCc3cc(C(F)(F)F)cc(C(F)(F)F)c3)cc2nn1C | -33 | -44 | 0% | -33 | 54
Cc1ccc(SCC(=O)N(C)CC(=O)Nc2cccc(F)c2)c(C)c1 | nt | nt | nt | 3.2 | -10
O=C(O)c1c(F)c(F)cc2ccccc12 | -2 | -5 | nt | -0.8 | -4
Cc1cccc(Nc2nnc(SCC(=O)Nc3ncc(C(F)(F)F)cc3Cl)s2)c1C | 6 | -18 | 3% | -1.7 | nt

The main list resumes; the six compounds before the break are reprinted first.
SMILES | Arbovirus anti | YopH PTP inh | Mtb growth | RecA splice inh | Mtb betalactam | others
O=C(O)c1c(F)c(F)cc2ccccc12 | -2 | -5 | nt | -0.8 | -4
CC(=O)Cc1nsc(NC(=O)c2cccs2)n1 | -7 | -26 | -7% | -3.6 | -1
CC(=O)c1ccc(C(=O)N2CCCC(Nc3ccccc3)C2)s1 (configuration not stated) | nt | nt | nt | 2.1 | ?
Cc1cccc(Nc2nnc(SCC(=O)Nc3ncc(C(F)(F)F)cc3Cl)s2)c1C | 6 | -18 | 3% | -1.7 | nt
O=C1CCn2nc(-c3ccc(Cl)cc3)cc2N1 | 9 | -28 | 3% | 0.3 | -3
COc1ccc(/C=N/n2c(COc3ccccc3)n[nH]c2=S)cc1OC | nt | nt | nt | -0.3 | -1
CCn1c(CCCNC(=O)c2cccs2)nc2ccccc21 | 14 | -46 | -2% | -3.4 | -1 | Arbovirus anti repeat=4
COC(=O)C1=C(C)N(CCCC(=O)O)C(=O)NC1c1cccc(OC)c1 (configuration not stated) | nt | nt | -14% | -0.3 | -3
COc1cccc2cc(C(C)N(CCCN3CCOCC3)C(=S)Nc3ccc(C)cc3)oc12 (configuration not stated) | 9 | nt | -2% | 2.6 | -8
COc1ccc(Cl)cc1N(CC(=O)NC1CC2CCC1C2)S(=O)(=O)c1ccccc1 (configuration not stated) | nt | nt | nt | -9.8 | -1
Cc1ccc(S(=O)(=O)Nc2c(C)ccc3nsnc23)cc1 | -9 | 11 | -4% | 1.1 | -2
O=C(NC1CCCC1)C(c1ccncc1)N(Cc1ccccc1)C(=O)Cc1cccs1 (configuration not stated) | 1 | -24 | 2% | 0.9 | -1
COC(=O)c1ccc(C)c(NC(=O)c2ccc(CN3CCc4ccccc4C3)cc2)c1 | nt | nt | nt | -0.1 | 34
Oc1[nH]c2ccccc2c1OCc1ccncc1 | -2 | -8 | -16% | -1.3 | 10
Cc1ccc(S(=O)(=O)NCC(=O)OCc2csc(-c3ccccc3)n2)cc1 | 3 | -30 | 3% | -5.3 | 14
COc1cccc(OCc2nn[nH]n2)c1 | nt | nt | nt | 2.8 | 0
Cc1cc2c(cc1S(=O)(=O)Nc1cccc(C)c1C)n(C)c(=O)c(=O)n2C | nt | nt | nt | -1.5 | ?
CC(C)C(NC(=O)c1ccc(Br)cc1)C(=O)NC1=NCCS1 (configuration not stated) | 1 | nt | 3% | -0.4 | 13
CC1CCN(c2nc3c(c(=O)[nH]c(=O)n3C)n2Cc2ccccc2Cl)CC1 | -4 | -35 | 1% | -2.6 | 6 | Arbovirus anti repeat=5
NC(=O)C1CCN(CC(=O)Nc2cc(Cl)ccc2Oc2ccccc2)CC1 | 1 | nt | 4% | -3.2 | -3
Cc1cc(=O)[nH]c(=S)[nH]1 | -3 | -17 | -5% | -1.2 | -4
Cc1cc(C)nc(-n2ncc3c2CC(C)CC3=O)n1 (configuration not stated) | nt | nt | -1% | 0.4 | 0
CCOC(=O)c1cnc2oc3ccccc3n2c1=O | nt | nt | nt | 2.3 | 9
CN1CCN(NC(=O)/C=C/c2cccc([N+](=O)[O-])c2)CC1 | nt | nt | nt | -4.2 | -5
CCOc1cc(N2CCOCC2)c(OCC)cc1NC(=O)CN1CCN(Cc2ccc3c(c2)OCO3)CC1 | -16 | nt | 12% | -1.6 | 0
Clc1ccc(Nc2nc(NCCN3CCOCC3)nc(N3CCOCC3)n2)cc1 | -10 | -9 | 7% | 0.4 | 2
Cc1ccsc1C(C(=O)NCc1ccccc1)N(C(=O)c1csnn1)c1ccccc1 (configuration not stated) | nt | nt | nt | 1.2 | -1
CCCCn1c(=O)[nH]c(=O)c2c1nc(-c1ccc(CC)c([N+](=O)[O-])c1)n2C | -8 | nt | 2% | 0.6 | 0
CCOc1ccccc1NC(=O)Nc1cccc(C(C)=O)c1 | -1 | -8 | -1% | 0.4 | 9
Cn1c(=O)[nH]c(=O)c2c1nc(N1CCOCC1)n2CC(O)COc1ccc2ccccc2c1 (configuration not stated) | 0 | 11 | 1% | -5.0 | 4
c1nnnn1C12CC3CC(CC(C3)C1)C2 | 4 | -3 | -7% | 0.2 | 1
COCCNC(=S)N/N=C(\C)c1ccccc1OC | 2 | -5 | -2% | -1.9 | 57
Cc1ccccc1N1C(=O)c2cccc3cccc(c23)C1=O | nt | nt | nt | -0.4 | -10
COc1ccc(OC(=O)COc2ccccc2C)cc1 | nt | nt | nt | 13 | -5
O=C(CCc1nnc(Cc2ccc3c(c2)OCO3)o1)NCCc1ccccc1Cl | nt | nt | nt | 1.6 | -3
O=C(NCc1ccccn1)c1ccc2c(c1)N(Cc1ccccc1)CCS2 | nt | nt | -6% | 2.3 | 0

In the list so far, these have a CF3 group.
SMILES | Arbovirus anti | YopH PTP inh | Mtb growth | RecA splice inh | Mtb betalactam | others
CCOc1c2ccc(C(=O)NCc3cc(C(F)(F)F)cc(C(F)(F)F)c3)cc2nn1C | -33 | -44 | 0% | -33 | 54
Cc1cccc(Nc2nnc(SCC(=O)Nc3ncc(C(F)(F)F)cc3Cl)s2)c1C | 6 | -18 | 3% | -1.7 | nt

More entries follow.
SMILES | Arbovirus anti | YopH PTP inh | Mtb growth | RecA splice inh | Mtb betalactam | others
CC(C)Sc1ccc([N+](=O)[O-])cc1C(=O)Nc1ccncc1 | nt | nt | 1% | 1.8 | -5
COc1ccc(S(=O)(=O)N2CCN(C(=O)c3cccs3)CC2)cc1OC | 3 | nt | -4% | 2.4 | -1
COc1ccc(C2c3c(-c4ccccc4O)n[nH]c3C(=O)N2Cc2ccco2)cc1 (configuration not stated) | nt | nt | 3% | 17 | 0
O=C(C1CCN(S(=O)(=O)c2ccccc2)CC1)N1CCN(c2ccccc2)CC1 | nt | nt | nt | -9.3 | -2
O=c1c2nnn(Cc3ccccc3)c2ncn1C/C=C/c1ccccc1 | 12 | -29 | 8% | -1.2 | 5
COc1ccc(C(C)C)cc1S(=O)(=O)N1CCC(C(=O)N2CCN(C)CC2)CC1 | nt | nt | nt | 2.3 | -12
CC(C)(C)c1ccc(OCCNC(=O)c2ncn[nH]2)cc1 | 2 | -13 | 19% | 0.5 | 50
CC(NC(=O)c1cccs1)c1nnc(SCc2ccc(Cl)cc2Cl)n1C (configuration not stated) | 77* | -8 | 7% | -7.8 | 19
NS(=O)(=O)c1ccc2nc(NC(=O)Nc3ccc(F)cc3)sc2c1 | nt | nt | nt | 0.8 | 0
COc1ccc(C(=O)c2ccc3oc(-c4ccc(OC)cc4)c(C#CCCO)c3c2)cc1 | nt | nt | 7% | 2.2 | 12
CCOC(=O)N1CCN(S(=O)(=O)c2ccc(OC)c(OC)c2)CC1 | -1 | -21 | -3% | -3.4 | 1
Cc1cc(C(=O)O)sc1C | 7 | -2 | -1% | 3.5 | ?
CC(CCc1ccccc1)NC(=O)CCNS(=O)(=O)c1ccccc1 (configuration not stated) | nt | nt | nt | -2.1 | 2
O=C(N/N=C/c1cc2ccccc2nc1Cl)[C@H]1C[C@@H]1c1ccccc1 | 11 | -20 | 65% | 4.1 | 74
O=C1CC(c2ccccc2Cl)CC(O)=C1C=NCCCO (configuration not stated) | nt | nt | nt | -0.3 | -4
C/C(=N\NC(=O)C1CC1)c1cccs1 | -1 | -22 | 4% | -3.8 | 0
CCn1ccnc1CNC(=O)C1CCC(=O)N(Cc2cccc(C(F)(F)F)c2)C1 (configuration not stated) | nt | nt | nt | 0.9 | -10
COc1ccc2c(-c3ccccc3)cc(N3CCOCC3)nc2c1 | -12 | 4 | -15% | 3.3 | 99
COc1ccc(CCN(Cc2cccs2)S(=O)(=O)c2ccc(-n3cnnn3)c(OC)c2)cc1OC | 4 | 13 | 9% | 3.9 | 7
Cc1ccc(Cl)cc1NC(=O)C1COc2ccccc2O1 (configuration not stated) | nt | nt | nt | -1.2 | 2
C#CCOc1c(Cl)cc(/C=C2/C(=O)ON=C2C)cc1OC | nt | nt | nt | 2.4 | 5
COc1ccc(OCC(=O)N/N=C/c2cccc3cccnc23)cc1 | nt | nt | nt | -7.3 | 68
O=C(/C=C/c1cccc([N+](=O)[O-])c1)OCC(=O)c1ccccc1 | 15 | nt | -2% | -1.0 | 8
Cc1nc(-c2cccc(NC(=O)COc3ccc(Cl)cc3)c2)cs1 | nt | nt | nt | 12 | 88
O=C(NCc1ccc(-c2nc3ccccc3s2)cc1)c1ccc(Br)o1 | -6 | -27 | -5% | -1.3 | 9
Cn1cnc(S(=O)(=O)N2CCN(c3ccc(F)cc3)CC2)c1 | nt | nt | -6% | -1.0 | -1
COc1ccc(NC(=O)CN2CCN(CC(=O)Nc3ccccc3F)CC2)cc1OC | 9 | -32 | 2% | 0.9 | 2
Cc1snc2sc(C(=O)c3ccc(Br)cc3)c(N)c12 | -7 | 2 | -4% | 11 | 0
COC(=O)c1c[nH]c(=O)c2ccccc12 | -2 | nt | -8% | 2.5 | 1
O=C(Nc1nc2ccccc2[nH]1)C1CC(=O)N(c2ccc3c(c2)OCCO3)C1 (configuration not stated) | 7 | -34 | 18% | -5.3 | 5
COC(=O)C1CCN(C(=O)CN2C(=O)c3ccccc3S2(=O)=O)CC1 | nt | nt | nt | 1.3 | -5
Cc1ccnc2nc(C(=O)N3CCN(c4ccc(F)cc4)CC3)nn12 | 1 | -2 | 5% | -5.2 | -6
Cc1nc2ccc(C(=O)O)cc2c2c1CC(CN)O2 (configuration not stated) | nt | nt | nt | -4.9 | -11
CCN1/C(=C2/OC(=S)N(C)C2=O)Sc2ccccc21 | 6 | -48 | 3% | nt | nt

Some of the compounds tested; rates above refer to the full screens.
